TSHR ag: TSH receptor (human) agonism. HEK293-CNG-TSHR cells (CNG channel as cAMP sensor), membrane potential dye, cAMP. Potency, µM (doses to about 57.1 µM), without a hit: at the top dose activation, most hits filed as activators. 0.48% of 73,000 active. AID 926; active = well fitted activation curve of enough size with the parental cells flat; inconclusive = any curve in the parental cells; inactive = parental cells flat and receptor cells flat or falling; further: potency means the concentration at half of the fitted maximal effect; % of control where 0% means no effect; weak receptor curves with flat parental cells got no call and are not listed
Target sequence (P16473 whole entry, looked up): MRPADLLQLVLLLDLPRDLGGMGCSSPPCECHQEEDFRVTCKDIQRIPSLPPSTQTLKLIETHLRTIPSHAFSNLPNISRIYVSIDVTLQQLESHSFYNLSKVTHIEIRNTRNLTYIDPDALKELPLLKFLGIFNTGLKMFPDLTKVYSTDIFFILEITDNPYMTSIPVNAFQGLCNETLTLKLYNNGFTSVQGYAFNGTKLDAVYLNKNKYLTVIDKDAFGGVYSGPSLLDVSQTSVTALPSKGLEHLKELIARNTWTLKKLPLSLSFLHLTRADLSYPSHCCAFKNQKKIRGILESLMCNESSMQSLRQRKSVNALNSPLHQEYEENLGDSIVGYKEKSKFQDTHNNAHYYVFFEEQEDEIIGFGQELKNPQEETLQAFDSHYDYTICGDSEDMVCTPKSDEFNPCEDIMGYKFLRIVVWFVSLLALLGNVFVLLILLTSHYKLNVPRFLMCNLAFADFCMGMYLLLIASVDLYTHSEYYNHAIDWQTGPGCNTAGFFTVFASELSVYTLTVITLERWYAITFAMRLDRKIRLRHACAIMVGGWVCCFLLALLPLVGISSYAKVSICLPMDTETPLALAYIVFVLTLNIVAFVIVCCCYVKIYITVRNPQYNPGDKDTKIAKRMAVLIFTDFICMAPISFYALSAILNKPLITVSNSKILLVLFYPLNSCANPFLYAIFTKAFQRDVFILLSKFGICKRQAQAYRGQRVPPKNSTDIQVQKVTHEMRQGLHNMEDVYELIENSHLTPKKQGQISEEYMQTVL
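HEK 293 cells stably expressing TSHR and a modified CNG channel, with CNG-only parental cells as counterscreen, were preloaded 60 min at room temperature with membrane potential dye containing 100 uM RO 20-1724. Compound exposure was 30 min, and depolarization was read as fluorescence at 590 nm.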
Resorufin autofl: compound fluoresces in the resorufin spectral region. Compound fluorescence, resorufin region 547/598 nm, buffer; hits give high values. max dye-equivalent concentration, M. 0.04% of 59,000 active; active = above 10 nM dye equivalent; inconclusive = 1 to 10 nM; inactive = 1 nM or less; a few of its hits are not listed in these tables; further: highest value over a series up to 38 µM
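Tris 100 mM pH 8.0; compound added, 15 min RT; CCD imager read, ex 547 nm/em 598 nm; signal normalized to resorufin standard curve (six concentrations per plate) as dye-equivalent concentration.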
A488 fluor: compound autofluorescence in A488 spectral region; compound autofluorescence, A488 spectral region, dye equivalency; hits give high values; max dye equivalency, M; 0.1% of 59,000 active; active = above 10 nM dye equivalent; inconclusive = 1 to 10 nM; inactive = 1 nM or less; about half of its hits are not listed in these tables;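 further: highest value over a series up to 38 µM; compound alone in buffer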
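Read-out: relative fluorescence at 480/540 nm, expressed as Alexa 488 dye-equivalent concentration from a six-point A488 standard included per plate. Conditions: 100 mM Tris, pH 8.0; 15 min incubation, room temperature.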
A647 autofl: compound autofluorescence in A647 spectral region; 59,000 tested, under 10 active; AID 592; max dye-equivalent concentration, M; Compound fluorescence, A647 channel (570/671 nm), Tris buffer; active means above 1 µM dye equivalent; inconclusive means 0.1 to 1 µM; inactive means 0.1 µM or less;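 further: values scaled relative to a standard on each plate; highest value over a series up to 38 µM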
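Tris 100 mM pH 8.0; cpd + A647 stds pin-transferred; 15 min RT; CCD imager, ex 570/em 671. Output = A647-equivalent conc. per cpd conc.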
AID923: qHTS Assay for Allosteric/Competitive Inhibitors of Caspase-1: Spectroscopic Profiling in AFC Spectral Region. Potency, µM (titrated, usually from 57.5 µM), inactives show top-dose fluorescence increase, actives largely listed as activators. AID 923, 2007. 1.1% of 75,000 active. compound fluorescence, AFC spectral region (405/520 nm); almost no hit is shown here; active means well fitted activation curve with a large enough effect; inconclusive means small, poorly fitted or top-dose-only effect;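 further: potency means the concentration at half of the fitted maximal effect; 0% is about no effect; scaled to a free AFC standard on each plate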
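Titrations up to 57 uM read every 20 sec for 3 min (405/520 nm) with 50 nM caspase 1 and 5 uM Ac-WEHD-AFC, pH 7.5 HEPES buffer. Fluorescence-vs-time intercept gave baseline, scaled against on-plate AFC standard.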
* marks the source's active call; other numbers are inactive results; i = inactive; u = inconclusive; x = no result given; [ ] = dose if it differs, or a comment. The list is partial. The share of hits here may be higher or lower than overall.

| Molecule | TSHR ag | Resorufin autofl | A488 fluor | A647 autofl | AID923 |
| --- | --- | --- | --- | --- | --- |
| CC(=O)c1cccc(NC(=O)C2CCCC2)c1 | 28%[11.4 µM] | x | x | x | 0.5% |
| COC(=O)c1ccc(CSc2nc(C(F)(F)F)c3c(c2C#N)CCC3)o1 | u | i | i | 3.4e-08 | 10% |
| CN(CCCNC(=O)c1cn(C)c2ccc(S(=O)(=O)N(C)C)cc2c1=O)c1ccccc1 | -9% | x | x | x | 4.0% |
| COc1ccc(C2=NOC(C(=O)N3CCCCCC3)C2)cc1OC (stereo not given) | 4% | i | i | 3.4e-08 | 0.9% |
| CN=c1scc(C)n1/N=C/c1ccc(O)cc1O | -12% | i | i | 1e-09 | 0.1% |
| CCCCOC(=O)C1=C(C)Nc2ncnn2C1c1cc(OC)ccc1OC (stereo not given) | 6% | i | i | 1e-09 | -0.2% |
| CCN1CCCC1CNC(=O)C1CCN(Cc2nc(-c3cccc(Br)c3)oc2C)CC1 (stereo not given) | -1% | i | i | 4.7e-08 | 0.4% |
| O=C(Nc1ccc2c(c1)OCO2)C1CCN(S(=O)(=O)c2ccc3c(c2)OCCO3)CC1 | 5% | i | i | 2.6e-09 | -0.2% |
| CN(C)CCNC(=O)C12CC3(C)CC(C)(CC(C)(C3)C1)C2 | x | i | i | 7.9e-08 | x |
| C=CCOC(=O)C1=C(C)NC(=O)NC1c1cn(-c2ccccc2)nc1-c1cccs1 (stereo not given) | x | i | i | 1e-09 | 0.8% |
| S=c1sc2c(N3CCOCC3)ncnc2n1-c1ccccc1 | 1% | x | x | x | -1.4% |
| O=C(O)c1ccc(C2CCCCC2)cn1 | x | i | i | 3.3e-08 | x |
| COC(=O)Cn1c2ccc(OC)cc2c2nc3ccccc3nc21 | 5% | i | i | 1.7e-08 | -0.8% |
| CC1(C)C(=O)C(c2ccccc2)=C2CN3C(=O)N(CCc4ccccc4)C(=O)C3(Cc3ccc(F)cc3)C=C21 (stereo not given) | 3% | x | x | x | 2.9% |
| Cc1ccc(OC(C)C(=O)N2CCc3ccccc32)cc1 (stereo not given) | x | i | i | 6.2e-08 | -0.5% |
| O=C(O)[C@@H](c1ccccc1)N1Cc2ccccc2C1=O | u | x | x | x | 1.5% |
| Cn1c(=O)n(CC(N)=O)c2ccccc21 | -4% | i | i | 2e-09 | 2.5% |
| COc1ccc(Nc2nc(C)c3ccccc3n2)cc1 | 5% | i | i | 1e-09 | 0.2% |
| Cn1cccc1Cc1nnc(SCC(=O)Nc2ccc(F)cc2)n1-c1ccc(F)cc1 | -4% | x | x | x | -3.8% |
| COc1ccc(N(C2CSC2)S(=O)(=O)c2ccccc2)cc1 | u | i | i | 2.6e-08 | 0.9% |
| COCCCNC(=O)CS(=O)(=O)Cc1nc(-c2ccccc2C)oc1C | 8% | x | x | x | 0.5% |
| CCOC(=O)C1CCCN(C(=O)c2cn(CC)c3ccc(S(=O)(=O)N4CCCC4)cc3c2=O)C1 (stereo not given) | 6% | i | i | 1.2e-08 | -1.2% |
| Cc1noc(C)c1CSc1ccccc1C(=O)N1CCN(c2ccccc2)CC1 | 3.2µM* | i | i | 3e-08 | -0.4% |
| CC(=O)c1cc(-c2nc3ccccc3n2C)n(C)c1 | -2% | i | i | 2.9e-08 | -0.8% |
| CN(C)c1ccc(/C=C2/C(=O)Nc3ccccc32)cc1 | u | i | i | 3.3e-09 | -3.7% |
| CN(C)S(=O)(=O)c1cccc(C(=O)N2CCc3ccccc32)c1 | -3% | i | i | 1.6e-08 | -0.6% |
| CC(=O)c1cccc(NC(=O)N2CCCC2C(=O)Nc2ccccc2C)c1 (stereo not given) | -5% | i | i | 8.8e-09 | -0.9% |
| S=C(Nc1ccc2cn[nH]c2c1)Nc1ccc2cn[nH]c2c1 | 12%[11.4 µM] | i | i | 1e-09 | -0.9%[11.5 µM] |
| CCOC(=O)c1cc2c(ccn2C)n1CC(=O)N1CCN(c2ccc(F)cc2)CC1 | -11% | i | i | 1e-09 | -1.3% |
| O=C(O)c1ccccc1S(=O)(=O)NCC(O)COc1ccc(Br)cc1 (stereo not given) | 8%[11.4 µM] | x | x | x | -1.6% |
| Cc1ccc(N2C(=O)[C@@H]3[C@H](C2=O)C2c4ccccc4C=CN2[C@@H]3C(=O)c2ccco2)c(C)c1 (stereo not given in full) | -12% | i | i | 6.9e-09 | 12% |
| CC1(C)CC(=O)C2=C(C1)NC(=O)CC2C(=O)NCc1ccc(F)cc1 (stereo not given) | 1% | i | i | 1e-09 | 0.1% |
| Cn1c(=O)c2c(nc(SCC(=O)N3CCCc4ccccc43)n2C)n(C)c1=O | -4% | i | i | 2.5e-08 | -1.4% |
| CCN1CCC(O)([C@H](C(=O)O)c2ccccc2)CC1 | -2%[11.4 µM] | i | i | 1e-09 | 1.5%[11.5 µM] |
| Cc1ccc(S(=O)(=O)NCCC(=O)N2CCCCC2)cc1 | 14% | i | i | 1e-09 | -1.5% |
| O=C(CSc1nccn1-c1ccccc1)NCc1ccc2c(c1)OCO2 | 2%[11.4 µM] | i | i | 1.1e-08 | -1.2% |
| CCOc1c(Br)ccc2c1sc1nc[nH]c(=O)c12 | 8% | i | i | 1e-09 | -1.3% |
| Cc1cc2cc(OCC(=O)O)ccc2n1C | 0% | i | i | 5.6e-09 | -2.0% |
| Cc1cccc(CNc2ncncc2-c2ccc(C(=O)N(C)C)cc2)c1 | 13% | i | i | 1e-09 | 2.9% |
| CCOC(=O)C1CCN(S(=O)(=O)c2cccc(-c3cn4cccc(C)c4n3)c2)CC1 | u | i | i | 1e-09 | 3.0% |
| COc1ccc(CCn2c(C)cc(C(=O)CSc3nnc(N)s3)c2C)cc1 | u | i | i | 1e-09 | -4.2% |
| O=C(Nc1ccc2c(c1)OCO2)C(c1ccc(Cl)cc1)N1CCN(C(=O)c2ccco2)CC1 (stereo not given) | 14% | i | i | 2.3e-08 | -0.6% |
| Cc1cc(Oc2ccccc2)nc2ccc(O)cc12 | -20% | x | x | x | -1.0% |
| Cc1ccc(N(CC(=O)NCc2ccncc2)S(C)(=O)=O)cc1Cl | -6% | i | i | 6.8e-09 | 1.0% |
| Cn1c(N2CCN(C(=O)C34CC5CC(CC(C5)C3)C4)CC2)nc2ccccc21 | -4%[11.4 µM] | i | i | 1e-09 | -0.5% |
| O=C(CCN1CCc2ccccc2C1)c1ccc2c(c1)OCCO2 | 10% | i | i | 2.6e-08 | 0.6% |
| Cc1noc(C)c1S(=O)(=O)N1CCC(C(=O)N2CCN(Cc3ccc4c(c3)OCO4)CC2)CC1 | 0% | i | i | 7.6e-09 | 1.6% |
| O=C1CCCC2=C1C(Cc1ccccc1)C1=C(CCCC1=O)O2 | u | i | i | 1e-09 | -0.4% |
| COC(=O)[C@H](Cc1ccccc1)NC(=O)NCCc1ccc(S(N)(=O)=O)cc1 | 3% | i | i | 3.5e-08 | 0.2% |
| O=S(=O)(c1cccc2nsnc12)N1CCc2ccccc2C1 | 17% | i | i | 1e-09 | -0.6% |
| O=C(O)CCCc1ccccc1 | x | i | i | 1.2e-08 | x |
| CCN1CCN(Cc2coc3ccc(C)cc3c2=O)CC1 | u | x | x | x | -1.6% |
| N#CCCn1c(=O)c(-c2cccs2)nc2cnc(N3CCOCC3)nc21 | u | i | i | 3.3e-08 | 2µM* |
| O=C(NCc1cn2ccccc2n1)c1ccc(Br)o1 | -1% | x | x | x | -2.0% |
| O=C1CN(c2ccccc2F)C(=O)CN1c1ccccc1F | 3% | i | i | 1.5e-08 | -2.3% |
| COCCCNC(=O)CCCC(=O)NCCCOC | u | i | i | 3.4e-09 | 1.1% |
| O=C(O)C1C2C=CC(C2)C1C(=O)NCCCN1CCOCC1 (stereo not given) | 3% | i | i | 2.4e-08 | -5.2% |
| COC(=O)c1[nH]c2ccccc2c1NC(=O)CCN1CCN(C2CCCCC2)CC1 | 9% | i | i | 9.2e-09 | -1.2% |
| O=C(O)C1CC(=O)N(Cc2cccnc2)C1 (stereo not given) | -2% | i | i | 4.1e-08 | 1.0% |
| Cc1ccccc1-c1nc(CN2CCC(C(=O)NC3CCN(Cc4ccccc4)CC3)CC2)c(C)o1 | 4% | x | x | x | -2.2% |

Record cards, from the list above. Screens in order: TSHR ag | Resorufin autofl | A488 fluor | A647 autofl | AID923
O=C1CN(c2ccccc2F)C(=O)CN1c1ccccc1F reads 3% | i | i | 1.5e-08 | -2.3%
CCOc1c(Br)ccc2c1sc1nc[nH]c(=O)c12 reads 8% | i | i | 1e-09 | -1.3%
Cc1ccc(N2C(=O)[C@@H]3[C@H](C2=O)C2c4ccccc4C=CN2[C@@H]3C(=O)c2ccco2)c(C)c1 (stereo not given in full) reads -12% | i | i | 6.9e-09 | 12%
O=C(O)C1CC(=O)N(Cc2cccnc2)C1 (stereo not given) reads -2% | i | i | 4.1e-08 | 1.0%

(more compounds)
| Molecule | TSHR ag | Resorufin autofl | A488 fluor | A647 autofl | AID923 |
| --- | --- | --- | --- | --- | --- |
| CCCOc1ccc(OC(=O)c2ccc(Br)o2)cc1 | 11% | i | i | 4.8e-08 | -0.1% |
| O=C(NC1CCCCCC1)C1c2ccccc2C(=O)N1Cc1cccnc1 (stereo not given) | 6% | i | i | 2.2e-09 | 0.7% |
| COC(=O)[C@@]1(Cc2ccc(OC)cc2)[C@H]2c3cc(C(=O)N(C)C)n(Cc4ccc(OC)c(OC)c4)c3C[C@H]2CN1C(=O)c1ccccc1 | u | x | x | x | -2.7% |
| COc1ccc(C(=O)Nc2ccccc2C(=O)NC(C(=O)NCc2ccco2)C(C)C)cc1 (stereo not given) | -7% | i | i | 1.3e-09 | -1.6% |
| C=CCNc1nc2c3ccccc3n(C(C)=O)c2s1 | 9% | i | i | 1.1e-08 | -0.9% |
| O=C1N(c2ccccc2)C2CS(=O)(=O)CC2N1c1ccc(Br)cc1 (stereo not given) | -5% | i | i | 3.2e-08 | -0.8% |
| CC(=O)c1cc2c(cc1NC(=O)CSc1nc3ccccc3o1)OCO2 | 54% | i | i | 6.2e-08 | -2.0% |
| C=CCN1C(=O)C(O)(CC(=O)c2ccc(OC)cc2OC)c2cc(Br)ccc21 (stereo not given) | 9% | i | i | 3.2e-08 | -1.2% |
| CC(=O)OCC(=O)[C@@]1(O)[C@H](C)C[C@H]2[C@@H]3CCC4=CC(=O)C=C[C@]4(C)[C@@]3(F)[C@@H](O)C[C@@]21C | x | i | i | 3.4e-08 | x |
| CCOC(=O)N1CCN(C(=O)c2cc3c(=O)[nH]c4ccccc4c3s2)CC1 | 4% | i | i | 4.6e-08 | -0.8% |
| CN1CCN(/C=N/c2c(C#N)cnn2C)CC1 | 3% | i | i | 1.2e-08 | -1.9% |
| CC(C)=NO[C@@H](C)CN1CCCCc2nc(C)c(C)cc21 | -1%[11.4 µM] | x | x | x | -0.6%[11.5 µM] |
| COc1ccccc1CNc1ncnc2ccc(-c3ccccc3OC)cc12 | 13µM* | i | i | 6.2e-09 | 6.1% |
| CCC(=O)Nc1nonc1-c1nc2ccccc2n1Cc1ccccc1 | u | i | i | 3.5e-08 | -1.0% |
| COc1ccccc1-c1cn(S(=O)(=O)c2ccc(C)cc2)nc1N | u | i | i | 9.7e-09 | -1.7% |
| Fc1ccccc1OCCSc1nnnn1-c1ccccc1 | x | i | i | 1e-09 | -0.4% |

Some of these compounds in order of SMILES length, ascending:
| Molecule | TSHR ag | Resorufin autofl | A488 fluor | A647 autofl | AID923 |
| --- | --- | --- | --- | --- | --- |
| CN1CCN(/C=N/c2c(C#N)cnn2C)CC1 | 3% | i | i | 1.2e-08 | -1.9% |
| C=CCNc1nc2c3ccccc3n(C(C)=O)c2s1 | 9% | i | i | 1.1e-08 | -0.9% |
| COc1ccccc1-c1cn(S(=O)(=O)c2ccc(C)cc2)nc1N | u | i | i | 9.7e-09 | -1.7% |
